Calb FLC: C. albicans growth modulation with fluconazole; C. albicans CaCi-2 (fluconazole-resistant clinical isolate) + fluconazole, Alamar Blue growth, 48 h; growth inhibition, % (test concentration not listed); 300,000 compounds, 0.57% hits;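 active = most replicates above 75%; inconclusive = exactly half above 75%; inactive = most below 75%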;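 note: all wells also contain fluconazole at 8 µg/ml as a sub-toxic cotreatment; 0% = median of DMSO wells and 100% = median of geldanamycin control wells; wells of about 8 µL received 7.5 nL stock; the first replicate is given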
rRNA inh HTS: inhibitors of bacterial rRNA selective over humanized ribosomes | E. coli WT GFP vs humanized-ribosome RFP mutants, fluorescence, 24 h; active compounds read low; DMSO median 0, no signal -100 | GFP signal change (wild-type ribosome), % (concentration not given with the values) | 350,000 compounds, 1.6% hits;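 active = significant combined selectivity score with lowered wild-type GFP, culture density cut under 30%, mutant RFP and density less affected; inactive = any of these conditions unmet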; note: one replicate is shown; some compounds called inactive have numbers as strong as hits
A1 inh: inhibitors of the anti-apoptotic protein A1, read as caspase activation | MEF A1-2A-BIM cells, Caspase-Glo 3/7 luminescence, 3 h; percent of clofoctol response, vehicle zero | caspase activation, % (no concentration beside the values) | 330,000 compounds, 0.066% hits | AID 2462;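 active = over half of replicate activation scores above 10%, or exactly half above 10 with the replicate mean above 10; inconclusive = replicate mean below 10 yet half the replicates above 10; inactive = over half of replicates below 10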;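 note: wells of about 30 µL received 50 nL stock; many hits fall short of the cut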
Beta cell apopt: blocks beta cell apoptosis. INS-1E cytokine-induced death, ATP luminescence, 48 h; percent of positive-control rescue, neutral wells zero. protection from apoptosis, % (test concentration not listed). 300,000 compounds, 0.8% hits;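 active = all replicates at 75% or more, or half of them and the mean; inconclusive = half reach 75% but not the mean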;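 note: 0% = cytokine-treated negative control wells and 100% = positive control rescue; higher means more ATP so stronger rescue from cytokine killing; wells of about 40 µL received 100 nL stock; the first replicate is given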
T cruzi inh: T. cruzi replication inhibition; T. cruzi beta-gal in NIH3T3, luminescence, 90 h; inhibition, % (test concentration not listed); 300,000 compounds, 1.4% hits; AID 1885;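 active = mean inhibition across valid replicates above about 55%, limit read from the data; inconclusive = mean below that limit but half or more replicates reach it; inactive = mean below it, under half of replicates reach it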;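 note: signal also drops with host cell toxicity which is not excluded here; 0% = plate median of DMSO wells and 100% = zero luminescence signal; higher percent means less beta-gal luminescence so fewer parasites; stock transfer was 50 nL into about 50 µL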
Vif A3G: inhibitors of Vif binding to APOBEC3G peptide, primary screen, biochemical, TR-FRET, GST-Vif 1-94, biotin-A3G peptide, dose response retest (AID 1117319); inhibition, %, or IC50 in µM where a hit was titrated; TR-FRET GST-Vif / biotin-A3G peptide binding; higher % means a stronger effect; test concentration not given here; strong numbers were not always called active; 260,000 compounds, 0.57% hits;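 active = above the screen mean plus three standard deviations and confirmed in dose response; inconclusive = results disagree or hit not tested in dose response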;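 note: Vif residues 1-94 fused to GST binding biotinylated APOBEC3G peptide 110-148; 0% = full assay without inhibitor and 100% = GST in place of GST-Vif; retest series ran down from 100 µM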
AF4-AF9 inh: inhibitors of human MLL-AF4/AF9 interaction. AlphaScreen, biotin-AF4 peptide binding to FLAG-AF9. inhibition, % at 10 µM. 350,000 compounds, 0.47% hits. AID 651704. P42568;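 active = every replicate reaching a set inhibition limit, whatever the replicate mean, cut at about 25% in these data; inconclusive = mean inhibition reaches that limit but some replicates miss it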;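 note: 0% = plate neutral control median and 100% = total signal loss; the record names both 10 and 1 µM as test concentration; the first replicate is given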
Target sequence (P42568 whole entry, looked up): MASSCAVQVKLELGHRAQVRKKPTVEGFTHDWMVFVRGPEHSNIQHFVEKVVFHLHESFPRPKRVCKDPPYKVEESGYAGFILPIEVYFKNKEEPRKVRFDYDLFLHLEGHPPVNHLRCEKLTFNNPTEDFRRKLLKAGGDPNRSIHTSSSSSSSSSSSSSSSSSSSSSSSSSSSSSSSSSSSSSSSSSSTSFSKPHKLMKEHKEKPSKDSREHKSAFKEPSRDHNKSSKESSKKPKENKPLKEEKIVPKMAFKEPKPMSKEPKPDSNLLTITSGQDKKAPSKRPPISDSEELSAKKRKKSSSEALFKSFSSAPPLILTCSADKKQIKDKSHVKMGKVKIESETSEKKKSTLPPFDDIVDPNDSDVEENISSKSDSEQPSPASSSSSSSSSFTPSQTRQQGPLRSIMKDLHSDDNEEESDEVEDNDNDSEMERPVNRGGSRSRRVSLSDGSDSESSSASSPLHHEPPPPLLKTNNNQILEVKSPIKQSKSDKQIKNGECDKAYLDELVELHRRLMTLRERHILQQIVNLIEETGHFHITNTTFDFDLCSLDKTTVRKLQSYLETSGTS
RanGTP-Imp inh: inhibitors of RanGTP-importin-beta interaction, primary screen, biochemical, FRET, CFP-Ran, YFP-importin-beta, homogeneous | cell-free CFP-Ran/YFP-importin-beta FRET ratio | 300,000 compounds, 1.1% hits | inhibition, % (test concentration not listed);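 active = most replicates above 15%; inconclusive = exactly half above 15%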;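 note: 0% = DMSO wells and 100% = Ran loaded with GDP instead of GTP; wells of about 40 µL received 100 nL stock; the first replicate is given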
rRNA inh HTS OD600: second read-out of rRNA inh HTS, no call of its own (marks repeat the call); OD600 change, %; measured here: OD600 growth;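 optical density of the mix in the first replicate; 0 = DMSO median and -100 = no signal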
rRNA inh HTS RFP: recorded beside rRNA inh HTS, whose call it bears; RFP signal change, %; measured here: RFP humanized mutant strains;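 first replicate; 0 = DMSO median and -100 = no signal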
Starred values were filed as active, the others as inactive; ? = inconclusive; / = not tested or not shown; & = joins results of further samples; ! = not confirmed by another sample.

SMILES	RanGTP-Imp inh	AF4-AF9 inh	A1 inh	Calb FLC	Vif A3G	rRNA inh HTS OD600	Beta cell apopt	rRNA inh HTS RFP	rRNA inh HTS	T cruzi inh
O=c1cccc2n1CC1CC2CN(c2ncnc3c2cnn3-c2ccc(Cl)cc2)C1 (stereo not drawn)	-0.9	/	0.5	-3	-9%	/	-7	/	/	9
CC1CCCN(c2ccc(C(=O)N3CCC4(CC3)OCCO4)cc2[N+](=O)[O-])C1 (stereo not drawn)	-1.5	3.7	-0.7	-9	/	-22*	-27	-1.4*	-30*	12
CN1CC2([N+](=O)[O-])CC=C(Cl)C([N+](=O)[O-])(C1)C2 (stereo not drawn)	3.3	-5.4	-0.2	-1	-5%	11	-8	0.3	6	1
Clc1cccc(C2NCc3ccccc3-n3cccc32)c1 (stereo not drawn)	-1.4	-2.8	-0.7	-12	-2%	7	-3	1.2	-4	-6
Cc1cccc(C(O)(C(=O)NNC(=O)CN2CCN(C)CC2)c2cccc(C)c2)c1	0.4	1.2	1.2	-12	12%	16	-10	7.6	15	4
CN1CCN(c2cccc3c2C(=O)c2ccccc2C3=O)CC1	-1.8	18	/	2	/	-15	/	-1.8	-11	33
O=C(c1cc(=O)[nH]c2ccc(Br)cc12)N1CCC2(CC1)OCCO2	-3.3	/	0.9	-1	6%	/	-11	/	/	5
COC(=O)C1=COC(C)C2CN3CCC4(C(=O)Nc5ccccc54)C3CC12 (stereo not drawn)	4.5	7.4	1.6	2	/	/	/	/	/	8
Cc1c(NC(NC(=O)CF)C(Cl)(Cl)Cl)c(=O)n(-c2ccccc2)n1C (stereo not drawn)	-2.3	-0.2	-0.7	-11	-2%	8	-6	3.7	10	-15
CC(C)Oc1ccc(Cc2c(O)[nH]c(=O)[nH]c2=O)cc1	6.3	6.3	0.8	-10	3%	-7	/	-0.2	3	-4
COc1ccc(-n2c(-c3ccco3)nc3ccccc3c2=O)cc1	1.7	4.4	-0.7	?	4%	4	-1	-1.5	10	9
O=C1NC(=O)N(c2ccc(F)cc2)C(=O)/C1=C/c1ccc2c(c1)CCCN2Cc1ccccc1	1.9	/	/	10	?	/	/	/	/	0
CC(=O)Nc1ccccc1C(=O)C(=O)Nc1cccc(C(=O)N2CCC3(CC2)OCCO3)c1	0.2	7.0	0.8	-2	24%	2	-3	0.8	-2	4
CC12CC[C@H]3[C@@H](CCC4(O)C[C@H](O)CCC34/C=N/NC(=O)c3ccccc3F)C1(O)CCC2C1=CC(=O)OC1 (stereo partly drawn)	0.1	-11	-0.2	-1	7%	3	-3	9.0	11	-13
CCOP(=O)(OCC)C(O)c1ccc2c(c1)OCO2 (stereo not drawn)	0.4	0.4	-0.1	5	-11%	/	-4	/	/	-12
CCOC(=O)c1ccc(N=Cc2c(O)n(-c3ccc(OC)cc3)c(=S)[nH]c2=O)cc1	-2.0	-1.0	0.7	-16	-414%	3	5	1.5	3	-10
CN1CCC(N2CC3CC(C2)c2cccc(=O)n2C3)CC1 (stereo not drawn)	2.8	/	1.5	?	11%	/	1	/	/	1
CCn1c(O)c(C=Nc2ccc(S(N)(=O)=O)cc2)c(=O)n(CC)c1=S	-1.2	-4.2	0.5	-5	/	/	-16	/	/	-8
O=C(O)c1ccc(Cl)nc1	?	-1.2	0.0	-12	-3%	18	2	4.4	5	-2
Cn1cc(C(=O)OCC(=O)NC2CCCCC2)c2ccccc21	/	-1.6	0.3	/	4%	3	-2	-4.3	5	/
CN(C)c1ccc(/C=C/C=C2/C(=O)NC(=O)N(c3ccccc3)C2=O)cc1	5.9	3.6	/	43	5%	/	/	/	/	-6
CCn1cc(C(=O)N2CCC3(CC2)OCCO3)c(=O)c2cc(S(=O)(=O)N3CCCC3)ccc21	6.9	/	-0.2	-5	2%	/	-9	/	/	6
CC(NCc1ccc(Cl)cc1)C(O)c1ccccc1 (stereo not drawn)	-5.1	2.3	0.3	4	-3%	-3	0	-8.8	1	-2
CCCC(C)n1[nH]c(=O)c2c1NC(=O)CSC2c1ccc(OC)cc1 (stereo not drawn)	2.3	/	0.0	-3	?	/	-4	/	/	-1
Cc1cccc(-n2c(O)c(C=NC34CN5CN(CN(C5)C3)C4)c(=O)[nH]c2=O)c1	2.5	-8.9	-0.6	-4	3%	16	-1	2.9	20	-9
COC(=O)c1ccc(-n2c(C)nc3ccccc3c2=O)cc1	1.4	/	0.8	-10	6%	/	1	/	/	-13
Cc1ccc(N(C)C(=O)Oc2ccc(C(=O)c3ccc(Cl)cc3)cc2)cc1	2.8	/	-0.4	-3	7%	/	2	/	/	-6
O=C1NC(=O)C2(Cc3ccccc3N3CCCC32)C(=O)N1c1cccc(Cl)c1 (stereo not drawn)	6.1	/	1.3	1	24%	/	0	/	/	-1
Clc1ccc(C2N3CCCN23)c(Cl)c1 (stereo not drawn)	2.0	/	0.7	-8	1%	/	-6	/	/	-4
O=C(c1cccc2ccccc12)C1CCCN(C2CCC2)C1 (stereo not drawn)	5.6	0.2	0.4	-30	4%	-15	-2	-0.4	-10	10
Cc1ccccc1-n1c(-c2ccc([N+](=O)[O-])cc2)nc2ccccc2c1=O	0.4	5.2	0.1	?	32%	4	4	2.1	0	17
O=C(Nc1ccccc1F)OC1CN2CCC1CC2 (stereo not drawn)	-0.6	-0.1	-0.8	-3	9%	7	-5	-1.1	17	0
COc1cc(/C=N/NP(=S)(c2ccccc2)c2ccccc2)ccc1O	6.4	/	-0.2	6	5%	/	-5	/	/	-17
CN1C(=O)C(Cc2cccs2)C(=O)N(C)C1=O	?	-29	-1.1	-9	1%	-9	-6	8.4	9	1
C[C@@H]1O[C@@H](O[C@H]2C[C@@H](O)[C@]3(CO)[C@H]4[C@H](O)C[C@]5(C)[C@@H](C6COC(=O)C6)CC[C@]5(O)[C@@H]4CC[C@]3(O)C2)[C@H](O)[C@H](O)[C@H]1O (stereo partly drawn)	?	-0.3	-0.3	/	/	/	-3	/	/	0
CCc1cc2c(s1)N(CC(=O)OC)C(=O)CN=C2c1ccccc1OC	1.0	-2.2	0.5	?	10%	-1	0	-3.3	7	9
CCOC(C(=O)OCCCN(CC)CC)(c1ccccc1)c1ccccc1	2.5	/	-0.6	-30	26%	/	0	/	/	25
O=S(=O)(NC1CN2CCC1CC2)c1ccc(Cl)cc1 (stereo not drawn)	3.1	-9.0	-0.3	5	/	20	-3	1.4	10	-4
COC(=O)c1cc2c(s1)=NC=NP=2(N1CCOCC1)N1CCOCC1	0.7	-1.3	0.6	-3	-1%&21%	18	-1	-1.2	20	-16
Cc1nc2ccccc2c(=O)n1-c1cc([N+](=O)[O-])cc([N+](=O)[O-])c1	2.4	-0.4	-0.8	7	/	18	7	-0.4	8	55*
Cc1c(N=Nc2c(O)n(C)c(=O)n(C)c2=O)c(=O)n(-c2ccccc2)n1C	0.7	0.8	0.5	1	/	11	3	-2.0	7	-3
COc1ccc(CCN)cc1O	2.5	-2.3	1.1	/	/	10	-8	0.8	9	-12
COC(=O)C1=C(c2ccc(S(C)(=O)=O)cc2)C[C@@H]2CC[C@H]1N2C(=O)NCCNC(C)=O	7.0	/	0.3	6	/	/	-5	/	/	-14
C[C@]12CCC(=O)C=C1C=C[C@@H]1[C@@H]2CC[C@@]2(C)[C@H]1CC[C@@]2(O)CCC(=O)O	/	-3.8	-0.4	/	/	-12	-2	0.9	-9	/
CN1/C(=C\C=C2C(=O)NC(=O)NC2=O)C(C)(C)c2ccccc21	9.1	-1.5	-1.2	24	/	8	8	-9.2	21	21
Cc1cc(C=O)c(C)n1CC1CCCO1 (stereo not drawn)	4.2	/	0.5	-2	?	/	-1	/	/	-2
CN(C)P1(N(C)C)=Nc2c(c(N)nn2C)C(c2ccccc2)=N1	-1.0	1.4&5.1	-0.5	-9	3%&-3%	4	0	-3.6	14	16
C1=C(c2c[nH]c3ccccc23)CCNC1	-55	/	-0.3	-14	10%	/	19	/	/	?
CCc1ccc(N2C(=O)NC(=O)/C(=C/c3ccsc3)C2=O)cc1	4.1	/	-0.1	3	0%	/	0	/	/	9
Nc1ccc(S(=O)(=O)N2CCCCC2c2cccnc2)cc1 (stereo not drawn)	0.1	7.8	0.7	-5	16%	3	5	-2.9	10	22

The results go on.
SMILES	RanGTP-Imp inh	AF4-AF9 inh	A1 inh	Calb FLC	Vif A3G	rRNA inh HTS OD600	Beta cell apopt	rRNA inh HTS RFP	rRNA inh HTS	T cruzi inh
CC(=O)[C@@]1(O)CCC2C3CC=C4C[C@@H](O)CC[C@]4(C)C3CC[C@@]21C (stereo partly drawn)	/	0.7	0.2	/	0%	5	2	2.6	6	/
CN(C)C1=NC(N(C)C)=NP(N(C)C)(N(C)C)=N1	-1.2	/	0.2	30	5%	/	-4	/	/	-5
COC(=O)C1=C(c2cccc(OC)c2OC)C[C@@H]2CC[C@H]1N2C(=O)NCc1cccc2ccccc12	2.5	1.8	-0.2	6	/	-29	-2	-6.3	-18	2
Cc1c(P(=S)(c2ccccc2)c2ccccc2)[n+]2ccccc2n1C	-0.1	66*!	/	-37	14%	2&-52	/	2.6&39	-4&-56	9
CCC(=NCCCN(CC)CC)c1c(O)n(-c2ccccc2)c(=O)[nH]c1=O	2.6	/	-0.1	-18	4%	/	-2	/	/	13
CC(C)(C)c1nc(N2CCN(C(=O)c3ccco3)CC2)c2nnn(Cc3ccccc3Cl)c2n1	-3.7	10	-0.6	-23	?	4	21	-8.9	8	/
Cc1cc(C=C2C(=O)N(C)C(=S)N(C)C2=O)c(C)n1-c1ccncc1	-2.9	0.0	0.9	-5	?	18	0	13	20	-6

Source: PubChem BioAssay (several laboratories)

This is a subset; count on the stated rates, not on these rows.
